ClpP mod: qHTS Assay for Activators of ClpP | purified B. subtilis ClpP, FRET peptide cleavage, 20 min | Potency, µM (highest dose often 57.5 µM), without a hit: top-dose activity change, negative = active | hit rate 1.9% among 340,000; active = well fitted falling curve with a large enough effect; inconclusive = small, poorly fitted or top-dose-only effect; inactive = no such curve, though single readings can be large or run the other way; further: potency means the concentration at half of the fitted maximal effect; the source files actives as falling curves though it sought activators and does not explain the sign; nearly all actives have a fitted effect of over 65% in size; many hits overshoot -100%
Target sequence (P80244 whole entry, looked up): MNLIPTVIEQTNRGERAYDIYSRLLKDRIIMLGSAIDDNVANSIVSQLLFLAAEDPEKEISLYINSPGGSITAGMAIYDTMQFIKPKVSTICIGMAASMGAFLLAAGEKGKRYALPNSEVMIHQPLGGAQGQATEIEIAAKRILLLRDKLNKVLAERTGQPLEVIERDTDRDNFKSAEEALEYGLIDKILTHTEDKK
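FRET quenching reversal measured ClpP activation: 10 microg/mL B. subtilis ClpP at pH 8 with the FRET-FV decapeptide, read at 430 nm after 320 nm excitation. The 20-min minus 0-min signal was scaled between DMSO/no-enzyme wells and ADEP (5.8 microM final).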
TRPML1 inh: qHTS for Inhibitors of the Human Mucolipin Transient Receptor Potential 1 (TRPML1); TRPML1-inducible cells, Ca2+ dye fluorescence, FDSS; stronger effect = lower value; inhibition of EC80 agonist-evoked calcium signal; AID 624415, 2012; hit rate 0.02% among 390,000; Mucolipin-1 (Homo sapiens), Q9GZU1; activity change, negative = inhibition, % (concentration not given with the values); in the data active means activity change below about -50%; inconclusive means about -30% to -50%; inactive means above about -30%;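 further: stimulus is agonist 54-4 at its EC80 concentration; on the % scale 0 is the no-effect control and ±100 the full control effect; compound concentration not given in the record; the text of the record puts the active cut at -80%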
Target sequence (Q9GZU1 whole entry, looked up): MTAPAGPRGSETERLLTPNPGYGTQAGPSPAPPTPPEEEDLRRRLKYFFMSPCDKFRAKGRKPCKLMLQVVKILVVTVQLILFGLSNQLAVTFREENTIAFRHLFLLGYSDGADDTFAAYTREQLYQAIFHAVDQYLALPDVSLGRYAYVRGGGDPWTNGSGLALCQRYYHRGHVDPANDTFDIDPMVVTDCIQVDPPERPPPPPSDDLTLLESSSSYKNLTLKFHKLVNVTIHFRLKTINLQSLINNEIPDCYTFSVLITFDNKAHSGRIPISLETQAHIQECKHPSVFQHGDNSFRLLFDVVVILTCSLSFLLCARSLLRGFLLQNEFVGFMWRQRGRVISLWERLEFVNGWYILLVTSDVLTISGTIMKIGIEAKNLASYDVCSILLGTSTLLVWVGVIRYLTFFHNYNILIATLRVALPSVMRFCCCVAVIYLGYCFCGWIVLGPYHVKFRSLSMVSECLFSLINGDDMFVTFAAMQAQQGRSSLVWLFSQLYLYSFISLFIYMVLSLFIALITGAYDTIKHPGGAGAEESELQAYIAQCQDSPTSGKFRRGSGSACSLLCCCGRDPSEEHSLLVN
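TRPML1-DL cells, Tet-induced overnight (~16 h, 37 °C) at 1,500 cells/well, were loaded with Ca8 no-wash dye plus quencher for 45-90 min at room temperature. Compounds were pinned during FDSS kinetic reading; agonist 54-4 at EC80 (4 uM final) then added.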
TRPML1 agonist: qHTS for Agonists of the Human Mucolipin Transient Receptor Potential 1 (TRPML1). AID 624414, 2012. Mucolipin-1 (Homo sapiens), Q9GZU1. TRPML1-expressing cells, Ca2+ dye fluorescence, FDSS; host cell line not named in the record; reference of the full effect not given here. activation, % (no concentration beside the values). hit rate 0.12% among 410,000; in the data active = activation above about 50%; inconclusive = about 30% to 50%; inactive = below about 30%; further: 0% is about no effect; the text of the record puts the active cut at 80%
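TRPML1-DL cells, Tet-induced overnight (~16 h, 37 degrees C), loaded 45-90 min at room temperature with Ca8 no-wash calcium dye plus quencher. FDSS fluorescence: 10 s baseline, compound pin-transfer, 110 s agonist read, then EC80 54-4 (4uM final) and 110 s antagonist read.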
gsp ag: qHTS for Agonist of gsp, the Etiologic Mutation Responsible for Fibrous Dysplasia/McCune-Albright Syndrome: qHTS | Potency, µM (doses to about 76.9 µM), for the others: at the highest dose activation (cAMP increase), hits mostly activators | hit rate 0.13% among 340,000 | gsp mutant cells, cAMP HTRF, 30 min; control for the full effect not named in the record; active = well fitted activation curve with a large enough effect; inconclusive = small, poorly fitted or top-dose-only effect, or another doubt; inactive = no such curve, though single readings can be large or run the other way; cell line not stated here;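 further: phosphodiesterase inhibitor Ro 20-1724 added with compounds to block cAMP breakdown; potency means the concentration at half of the fitted maximal effect; nearly all actives have a fitted effect of over 60% in size; about a fifth of the inactives were tested at one dose only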
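Cells stably selected in G418 were plated at 2000/well, grown 16-24 hr, then given compounds in DMSO with the PDE inhibitor […] (300 uM solution added) for 30 min at 37C; cAMP was read by HTRF.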
Menin MLL FP FL: qHTS Assay for Inhibitors Targeting the Menin-MLL Interaction in MLL Related Leukemias: Competition With Fluorescein Labeled MLL-derived Peptide | 290,000 tested, under 10 active | Fluorescence polarization, fluorescein-MLL peptide displacement from menin | FP activity change, % at 61.4 µM; inconclusive = falling polarisation curve, or a change in total fluorescence; inactive = total fluorescence flat and polarisation flat or rising; no compound was filed as active; the % refers to the polarisation; negative = inhibition;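 further: % of control where 0% means no effect; inhibitors lower the polarisation; unlabelled MLL peptide was the positive control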
gsp antagonist: qHTS for Antagonists of gsp, the Etiologic Mutation Responsible for Fibrous Dysplasia/McCune-Albright Syndrome: qHTS; gsp-mutant cells, cAMP HTRF, 30 min; control for the full effect not named in the record; Potency, µM (highest dose often 76.9 µM), without a hit: at the highest dose activity change, negative = inhibition, usual class: inhibitors; hit rate 0.4% among 340,000; active = falling curve of any shape with a large fitted effect; inconclusive = falling curve, mostly with a smaller effect; inactive = flat or rising curve; cell line not stated here;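 further: intracellular cAMP measured with PDE inhibitor Ro 20-1724 present during compound exposure; potency means the concentration at half of the fitted maximal effect; on the % scale 0 is the no-effect control and ±100 the full control effect; nearly all actives have a fitted effect of over 65% in size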
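HTRF cAMP measurement after 30 min RT detection following 30 min, 37C compound treatment alongside […] (added as 300 uM solution) in G418-selected cells seeded at 2000/well and grown 16–24 h.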
* hit, by the source's call; ? = inconclusive; . = no result given; & = joins results of further samples; [ ] = remark or other dose.

SMILES	ClpP mod	TRPML1 inh	TRPML1 agonist	gsp ag	Menin MLL FP FL	gsp antagonist
Cc1ccc2sc(N3CCN(C(=O)CCS(=O)(=O)c4ccc(Cl)cc4)CC3)nc2c1C	-7.8%	-9	-0.9	.	.	.
O=C(c1ccncc1)N(c1ccc(N2CCOCC2)cc1)C(c1ccccc1)c1nc2ccccc2[nH]1 (centres undefined)	-8.0%	18	-0.6	.	.	.
Fc1ccc2[nH]c3c(NCCN4CCOCC4)ncnc3c2c1	?	37	1.9	?	-4.0	?
Cc1ccc(S(=O)(=O)Nn2cnnc2)cc1	-0.6%	12	-0.5	-7%	1.1	7%
CCOc1ccccc1NC(=O)NCc1ccc2c(c1)CCN2C(=O)c1ccccc1	-0.2%	-1	1.7	.	.	.
CC1CCCCC12NC(=O)N(CC(=O)N(C)Cc1nc3ccccc3c(=O)[nH]1)C2=O (centres undefined)	0.7%	0	0.4	-2%	.	-3%
Cc1nn(C)c(C)c1CNC(=O)c1cc2n(n1)C(C(F)(F)F)CC(c1cccs1)N2 (centres undefined)	-0.1%	0	0.4	-30%	2.1	-4%
O=C(Nc1ccc(Cl)cc1)C(NS(=O)(=O)c1cccs1)c1ccccc1 (centres undefined)	-0.2%	4	5.1	.	.	.
CC(=O)C1=C(c2ccc(C)cc2)N(C(C)=O)n2c(nnc2C2CCCCC2)S1	-0.6%	53	2.3	.	.	.
Cc1ccc(CNC(=O)CCS(=O)(=O)c2ccc(C)cc2)cc1	-1.2%	-10	-0.4	-2%	0.8	7%
COc1ccc(C(=O)NNC(=O)C(=O)N2CCCCC2)cc1OC	4.1%	9	0.4	-5%[15.4 µM]	.	2%
CCOc1ccc(S(=O)(=O)c2c(C(=O)c3ccc(C)cc3)cnc3cc4c(cc23)OCCO4)cc1	?	-11	1.4	-49%[inhibitor]	7.0	-2%
O=C(COC(=O)COc1ccc(Cl)cc1)NCCNC(=O)COC(=O)COc1ccc(Cl)cc1	.	38	0.2	-2%[15.4 µM]	.	-3%
COc1ccc(CNC(=O)C[C@H]2C[C@H](C(=O)N3CCOCC3)[C@@]3(C)c4[nH]c5ccc(Cl)cc5c4CCN3C2=O)cc1OC	2.4%	-5	-0.6	.	.	-3%
N#C/C(=C\Nc1ccc(Cl)cn1)S(=O)(=O)c1ccccn1	0.1%	24	0.9	3%	4.1	6%
CCCCCOC(=O)c1ccc(OC(=O)c2cncc(Br)c2)cc1	-1.9%	12	1.7	-51%[inhibitor]	-0.8	-2%
CC[C@]12c3[nH]c4ccccc4c3CCN1C(=O)C(CC(=O)NCCC1=CCCCC1)C[C@@H]2C(=O)N1CCN(C(=O)c2ccco2)CC1 (some centres undefined)	2.6%	-4	2.8	.	.	-11%
O=C(CCNS(=O)(=O)c1ccc2c(c1)CCN2C(=O)C1CC1)Nc1ccc(Cl)cc1	-3.0%	8	0.7	.	.	.
Cn1c(=O)c([N+](=O)[O-])c(NCCCn2ccnc2)c2ccccc21	.	-4	0.6	8%[15.4 µM]	0.2	13%
C/C(=N/NC(=O)CNc1ccc(C)cc1)c1ccc(Cl)cc1	-1.2%	-1	0.9	-22%	3.6	4%
COc1cccc(NC(=O)Cc2nnc(SCC(=O)NC3=NCCS3)n2C)c1	.	-10	0.1	24%	3.1	7%
CCN(CC)CCCNC(=O)c1cc2c(-c3cccc(OC)c3)nn(C)c2s1	4.9%	-1	-0.2	-21%	-5.3	3%
COc1cc(/C=C/C(=O)O)cc(OC)c1	?	-4	-0.4	.	-7.1	3%
CN(C)c1ccc2nc3c(=O)[nH]c(=O)nc-3n(CC(O)C(O)C(O)CO)c2c1 (centres undefined)	1.3%	0	4.7	15%	?	?
Cc1ccccc1OCc1cc(=O)n2c(-c3ccccc3)csc2n1	-5.6%	-4	0.9	.	.	.
SMILES	ClpP mod	TRPML1 inh	TRPML1 agonist	gsp ag	Menin MLL FP FL	gsp antagonist
O=C(NCc1cccs1)c1cc2c(s1)CCCC2	-0.9%	-3	-0.2	-35%[inhibitor]	8.5	-9%
COc1ccc(-n2nnnc2SCC(=O)Nc2ccc(OC)cc2OC)cc1	1.9%	6	0.7	-7%	-7.4	-11%
Cc1ccc(C(=O)N/C(=C\c2ccc(C)o2)C(=O)O)cc1	0.0%	.	.	-2%	11	6%
Cc1ccnc(NC(=O)c2cccc(S(=O)(=O)N3CCN(c4ccccc4)CC3)c2)c1	.	39	-0.6	10%[15.4 µM]	.	-1%
CC(C)NC(=O)COc1coc(CN2CCN(c3cccc(Cl)c3)CC2)cc1=O	0.1%	-13	-0.4	-1%	.	1%
Cc1ccccc1Nc1c(-c2ccc(Cl)cc2)nc2c(C)cccn12	3.9%	36	0.9	.	.	.
O=[N+]([O-])c1cc([N+](=O)[O-])c(Oc2cncc(Cl)c2)cc1NN1CCCCC1	0.1%	-25	-0.4	3%	2.4	0%
O=C(C1CCN(S(=O)(=O)N2CCOCC2)CC1)N1CCOCC1	-0.9%	7	3.2	4%	1.7	-2%
CSc1ccc(S(=O)(=O)N2CCC(C(=O)N3CCOCC3)CC2)cc1	0.6%	-8	-1.0	13%[15.4 µM]	-5.1	-22%
Cc1ccc(S(=O)(=O)c2nc(-c3cccs3)oc2SC(C)C)cc1	3.0%	12	-0.5	.	.	.
Cc1cccc(OCCSc2nnc(-c3cccs3)o2)c1	-25%	-15	-0.3	.	.	.
COc1ccc(C(=O)COC(=O)CN2C(=O)C3C4C=CC(C5CC45)C3C2=O)cc1 (centres undefined)	-0.3%	12	-0.9	8%	3.5	6%
Cc1cccn2cc(-c3ccc(NC(=O)Cc4ccccc4)cc3)nc12	4.3%	7	-0.8	20%	0.3	19%
COc1ccc(CNC(=O)CSc2nnnn2C)cc1OC	1.0%	-19	-0.4	-4%	-2.5	2%
O=C(CCc1ccccc1)N1CCCC1	0.7%	6	-0.2	-8%	1.4	2%
Cc1cc(C(=O)N2CCN(CCc3ccccc3)CC2)no1	2.4%	4	1.5	?	1.7	-9%
COc1ccc(NC(=O)c2cc3ccccc3oc2=O)c(OC)c1	-0.6%	-12	-0.8	-32%	6.3	-1%
CCn1nc(C(=O)Nc2nc3ccccc3[nH]2)c2ccccc2c1=O	1.5%	4	-0.4	?	-2.0	-3%
O=C(CN1C(=O)c2ccc([N+](=O)[O-])cc2C1=O)Nc1ccccc1N1CCCC1	.	8	0.8	-12%[15.4 µM]	.	-10%
O=C(NC1=NCCS1)c1cccc(S(=O)(=O)N2CCOCC2)c1	-2.6%	17	-0.2	-20%	.	13%
CC(Cc1ccccc1)C(=O)NCc1ccccn1 (centres undefined)	-1.1%	9	-0.1	.	-1.9&3.3	7%
O=C(COC(=O)c1ccc(Br)o1)NCCNC(=O)COC(=O)c1ccc(Br)o1	-11%	17	0.3	-15%	.	9%
Cc1ccc(NC(=O)CCn2cccn2)cc1Cl	0.1%	-4	1.0	.	.	.
CCSc1ccccc1C(=O)Nc1ccc([N+](=O)[O-])cc1OC	-8.1%	25	2.9	-7%	-3.4	40µM*
Cc1ccc(NC(=O)c2c(C)nn(-c3ccccc3)c2Cl)cc1	1.1%	-6	-0.8	2%[15.4 µM]	-8.6	-14%

Some values from the list.
`CC(C)NC(=O)COc1coc(CN2CCN(c3cccc(Cl)c3)CC2)cc1=O` @ TRPML1 inh = -13
`COc1ccc(C(=O)COC(=O)CN2C(=O)C3C4C=CC(C5CC45)C3C2=O)cc1` (centres undefined) @ ClpP mod = -0.3%

Further results
SMILES	ClpP mod	TRPML1 inh	TRPML1 agonist	gsp ag	Menin MLL FP FL	gsp antagonist
Cc1ccc(COc2ccccc2C(=S)N2CCCC2)cc1	.	4	1.5	3%[15.4 µM]	-1.0	?
CCSC1=NCCN1S(=O)(=O)c1ccc(Cl)cc1	-1.6%	9	1.0	-29%	0.7	6%
CCc1ccc(CN2CC(C(=O)O)CC2=O)cc1 (centres undefined)	0.7%	13	-0.6	-56%[inhibitor]	-2.5	9%
COC(=O)C1CCN(C(=O)CSc2nc3ccc(OC)cc3[nH]2)CC1	.	8	-0.9	11%[15.4 µM]	-0.1	-19%
CCOC(=O)C1=CN2CCCC[C@@H]2CC1=O	-2.2%	9	0.7	12%	.	7%
O=C1COc2ccc(C(=O)COC(=O)c3ncc(Cl)c(Cl)c3Cl)cc2N1	.	-17	1.5	-15%[15.4 µM]	.	-11%
Cc1nc2sccn2c(=O)c1S(=O)(=O)Nc1cc(Cl)ccc1O	-7.1%	8	1.5	.	.	.
CCOC(=O)Cn1c(=O)n(CC2CCCO2)c2nc(-c3c(F)cccc3Cl)nc(C(N)=O)c21 (centres undefined)	3.6%	25	1.3	.	.	.
Cc1nc(-n2nnc3cc(C)c(C)cc32)c2c3c(sc2n1)CCCC3	-7.3%	-7	0.6	-3%	-3.0	8%
CC1CCCCC1NC(=O)CN1CCC(NC(=O)c2ccc([N+](=O)[O-])cc2)CC1 (centres undefined)	.	9	-0.3	-6%[15.4 µM]	9.3	5%
CC(Oc1ccc(F)cc1)C(O)CCN(C)C (centres undefined)	2.2%	-2	-0.7	11%	-0.3	10%
COc1cc(/C=C/C(=O)N2CCc3ccccc3C2)cc(OC)c1OC	-26%	3	-0.9	10%	-4.3	2%
CCOC(=O)CSC1=C(C#N)C(c2ccc(Cl)cc2)C(C(=O)OC)C(=O)N1 (centres undefined)	-1.7%	-8	2.7	-1%	0.8	?
O=C(OCC(=O)N1CCN(c2ccccc2)CC1)c1nc(Cl)ccc1Cl	-1.0%	5	-0.7	-5%	.	13%
Cc1ccc(NC(=O)COC(=O)c2c[nH]c3ccccc23)cc1C	2.1%	1	-1.5	-1%	.	2%
CCOC(=O)C1=C(C)N=C(/N=C/N(C)C)SC1c1ccccc1 (centres undefined)	0.5%	4	0.2	10%	1.7	?
NS(=O)(=O)c1ccc(CNS(=O)(=O)c2ccc3ccccc3c2)cc1	-5.6%	-7	-0.6	-18%[15.4 µM]	.	-4%
Cc1c(-c2ccccc2)nc(N)c(C#N)c1-c1cccs1	-23%	25	1.6	-24%	1.3	-12%
Cc1ccc(N2C(=O)[C@@H]3C(c4ccc(F)cc4)=NO[C@@H]3C2=O)cc1	0.8%	0	0.7	-12%	-2.1	-1%
CS(=O)(=O)N1CCCC(C(=O)NCc2ccccc2Cl)C1 (centres undefined)	1.1%	-12	0.5	10%	8.7	2%
COc1ccc(C(=O)Nc2ccc(F)cc2F)cc1	-1.4%	1	-0.3	-10%	2.2	3%
CC(=O)N1CCN(Cc2nc3cc(NS(C)(=O)=O)ccc3n2C)CC1	-11%	12	-0.4	2%	0.1	3%

Screening results as filed in PubChem BioAssay.
